Source: PubChem (several laboratories)
Mtb betalactam = beta-lactam sensitization of Mtb H37Rv, H37Rv; inhibition, % at 25 µM; M. tuberculosis H37Rv growth with meropenem, percent inhibition; hits of this screen are not shown here; actives 0.27% (n = 330,000);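 active means about 74% or more and at least 40 points above the plate without the antibiotic, then above 30% in a dose series; inconclusive means first-round hits that could not be retested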;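 further: growth measured after seven days incubation then overnight dye step; 0% = bacteria only wells and 100% = bacteria with antibiotic; twin plates without the antibiotic show which effects depend on it; some results filed as inactive read as strong as hits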
Arbovirus anti = antivirals against arbovirus infection, primary screen, cell-based, full library, 10K replicate subset; AID 1251, 2008; inhibition, % at 10 µM; arbovirus infection cell-based antiviral screen; actives 0.37% (n = 200,000);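 active means inhibition from about 30%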;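 further: bluetongue infection of BSR cells; cell survival read as ATP light after 72 h; 0% = infected wells without compound and 100% = uninfected wells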
YopH PTP inh = YopH tyrosine phosphatase inhibitors, primary screen, biochemical, fluorescence Ex485/Em525; actives 0.16% (n = 140,000); AID 898, 2007; inhibition, %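 (about 10 µM by stock and volumes)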; YopH tyrosine phosphatase [Yersinia enterocolitica];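 active means inhibition of 50% or more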;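 further: controls were vehicle for no effect and minimum signal wells for full effect; inactives centre near -20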
RecA splice inh = Mtb RecA intein splicing inhibitors, primary screen, biochemical, fluorescence, HTS; Protein RecA (Mycobacterium tuberculosis (strain ATCC 25618 / H37Rv)), P9WHJ3; cell-free RecA intein splicing; inhibition, %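 (about 9 µM by stock and volumes)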; actives 0.75% (n = 290,000); in the data active means inhibition above about 30%; inconclusive means no clear call, values can overlap the other calls;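 further: 0% = vehicle wells and 100% = reference inhibitor control wells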
Target sequence (P9WHJ3 whole entry, looked up, canonical isoform): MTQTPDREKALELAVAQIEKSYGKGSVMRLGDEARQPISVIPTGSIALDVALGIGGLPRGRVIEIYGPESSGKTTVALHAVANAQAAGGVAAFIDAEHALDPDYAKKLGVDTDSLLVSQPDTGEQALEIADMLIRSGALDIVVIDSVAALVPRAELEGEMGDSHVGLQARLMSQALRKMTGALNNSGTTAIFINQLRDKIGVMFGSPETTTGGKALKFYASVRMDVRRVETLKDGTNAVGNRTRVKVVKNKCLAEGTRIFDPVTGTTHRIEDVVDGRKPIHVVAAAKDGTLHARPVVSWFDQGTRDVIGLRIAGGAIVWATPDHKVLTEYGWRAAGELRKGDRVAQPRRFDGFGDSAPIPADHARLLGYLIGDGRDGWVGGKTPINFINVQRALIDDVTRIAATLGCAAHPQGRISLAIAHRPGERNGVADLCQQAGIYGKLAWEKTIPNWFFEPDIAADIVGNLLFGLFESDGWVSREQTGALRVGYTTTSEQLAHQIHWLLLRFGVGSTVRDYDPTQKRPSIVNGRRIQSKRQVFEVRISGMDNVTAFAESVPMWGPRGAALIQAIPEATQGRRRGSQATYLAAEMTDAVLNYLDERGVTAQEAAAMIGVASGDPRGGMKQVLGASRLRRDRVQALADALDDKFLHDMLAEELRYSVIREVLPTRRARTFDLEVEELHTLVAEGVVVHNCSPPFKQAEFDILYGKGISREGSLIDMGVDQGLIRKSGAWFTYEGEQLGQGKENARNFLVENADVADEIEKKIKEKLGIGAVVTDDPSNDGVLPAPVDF
Mtb H37Rv = M. tuberculosis H37Rv growth inhibitors, H37Rv strain (AID 1626) | inhibition, % at 10 µM; hits with a dose series show IC50 in µM | actives 0.95% (n = 220,000) | M. tuberculosis H37Rv growth inhibition; higher % means a stronger effect;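 active means confirmed in a dose series; inconclusive means inhibition above 80% but not taken into the dose series; inactive means below 80% or under 30% at every dose of the series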;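 further: bacteria incubated seven days before Alamar blue readout; 0% = bacteria only wells and 100% = bacteria with antibiotic wells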
Arbovirus anti repeat = recorded beside Arbovirus anti, whose call it bears; inhibition, %; measured here: 10K subset replicate screen; many hits read low in the repeat;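 first of two repeat runs on a subset; 0% = infected and 100% = uninfected wells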
Starred values were filed as active, the others as inactive; ? = inconclusive; . = no result given; & = joins results of further samples. This is a subset, so the mix of outcomes need not match the whole.

SMILES	Mtb betalactam	Arbovirus anti	YopH PTP inh	RecA splice inh	Mtb H37Rv	others
O=C(CSc1nnc(NC(=O)c2c(F)cccc2Cl)s1)Nc1ccccc1F	-1	.	.	-1.6	.
COCCCNCCCCOc1ccc(Br)cc1C	3	-34	-22	1.6	-7%
CCN(CC)CCCN=C(C)c1c(O)n(-c2ccccc2)c(=O)[nH]c1=O	-12	1	0	-1.5	-2%
CCN(CC)S(=O)(=O)c1ccc(C(=O)N(c2ccccc2)C2C=CS(=O)(=O)C2)cc1 (stereo not given)	-2	-2	.	.	2%
COc1ccc2c(c1)C(C)=CC(C)(C)N2S(=O)(=O)c1ccc(NC(C)=O)cc1	-1	.	.	1.2	.
CCOC(=O)c1c(NC(=S)Nc2ccc(Cl)cc2)sc2c1CCN(C)C2	-12	-14	-36	.	2%
COc1ccc2c(c1)O/C(=C\c1sccc1C)C2=O	4	-16	-24	-3.6	5%
COCCCn1c(SCc2ccc(OC)cc2)nc2cc(OC)c(OC)cc2c1=N	4	1	-37	0.5	2%
CCOC(=O)Cc1csc(NC(=O)CSc2nnc(C3CC3)n2C)n1	0	-5	9	-0.7	-2%
C/C(Cl)=C\CSc1nnc2n(N)c(=O)c3ccccc3n12	-10	0	-9	-1.5	4%

Continued, overlapping the part above by 7 compounds.
SMILES	Mtb betalactam	Arbovirus anti	YopH PTP inh	RecA splice inh	Mtb H37Rv	others
CCN(CC)S(=O)(=O)c1ccc(C(=O)N(c2ccccc2)C2C=CS(=O)(=O)C2)cc1 (stereo not given)	-2	-2	.	.	2%
COc1ccc2c(c1)C(C)=CC(C)(C)N2S(=O)(=O)c1ccc(NC(C)=O)cc1	-1	.	.	1.2	.
CCOC(=O)c1c(NC(=S)Nc2ccc(Cl)cc2)sc2c1CCN(C)C2	-12	-14	-36	.	2%
COc1ccc2c(c1)O/C(=C\c1sccc1C)C2=O	4	-16	-24	-3.6	5%
COCCCn1c(SCc2ccc(OC)cc2)nc2cc(OC)c(OC)cc2c1=N	4	1	-37	0.5	2%
CCOC(=O)Cc1csc(NC(=O)CSc2nnc(C3CC3)n2C)n1	0	-5	9	-0.7	-2%
C/C(Cl)=C\CSc1nnc2n(N)c(=O)c3ccccc3n12	-10	0	-9	-1.5	4%
Cc1ccnc(NC(=O)c2cccc(NC(=O)COc3ccccc3)c2)c1	-6	6	-33	-1.0	-4%
C=CCN(CC=C)S(=O)(=O)c1ccc2nc(NC(=O)C(C)C)sc2c1	-2	-26	3	.	0%
COc1cccc(C2/C(=C(\O)c3ccc4c(c3)OCCO4)C(=O)C(=O)N2c2nnc(C)s2)c1 (stereo not given)	2	.	.	-3.1	.
CCOC(=O)C1CCN(S(=O)(=O)c2cccc3nonc23)CC1	-6	5	-29	1.8	0%	Arbovirus anti repeat=8
CCOc1ccc(CCNC(=O)C2CCN(S(=O)(=O)c3ccc(C)cc3)CC2)cc1OCC	2	.	.	0.7	.
O=C(CCCN1C(=O)c2ccccc2C1=O)NCCCN1CCOCC1	-9	-2	-27	0.9	-15%
Cn1cc([N+](=O)[O-])cc1-c1nc2ccccc2n1C	1	.	.	-0.1	.
CCOC(=O)C1=C(CSCC(=O)OC)NC(=O)NC1c1cc(C)ccc1C (stereo not given)	-9	2	-11	5.2	1%
Cc1nc2ccccn2c1C(=O)NN=C1CCN(C)CC1	-7	-8	.	-5.5	-2%
O=C(CCOc1ccccc1)OCC(=O)c1cc2ccccc2o1	-5	-4	-49	-1.5	1%
COc1ccc(C(C)=O)cc1CSCCC(=O)O	0	3	-12	-7.8	4%
COCCCN1C(=O)C2C(C(=O)Nc3cccc(Cl)c3)C3C=CC2(O3)C1C(=O)NC1CCCCC1 (stereo not given)	4	.	.	-0.8	.
COc1ccc(/C(N)=N/OC(=O)c2ccc3c(c2)OCO3)cc1OC	1	0	9	-0.6	-9%
Cc1ccc(Nc2nnc(SCc3cc(=O)n4ccsc4n3)s2)c(C)c1	-14	6	-1	3.7	-18%
COc1cc(OC)cc(N(C(=O)CNC(=O)c2cccs2)C(C(=O)NCC2CCCO2)c2ccccc2)c1 (stereo not given)	-5	.	.	-0.7	.
Cc1cc(NC(=O)c2ccc(Br)c([N+](=O)[O-])c2)no1	2	7	.	-3.4	6%
Cc1ccc(-c2noc(CCCc3ccccc3)n2)cc1	-1	-1	-16	8.8	7%
O=C(COc1ccc(S(=O)(=O)N2CCCCC2)cc1Cl)N1CCOCC1	-1	.	.	1.4	.
CCC(C(=O)OCC(=O)N(C)c1c(N)n(Cc2ccccc2)c(=O)[nH]c1=O)c1ccccc1 (stereo not given)	-12	.	.	0.9	.
Cc1ccc(NC(=O)CNC(=O)c2ccco2)cc1Cl	-2	.	.	-0.3	.
CNC(=O)/C(=C\c1cccc(Oc2ccccc2)c1)NC(=O)c1ccccc1	-1	-10	-24	-2.0	-8%
CCCCC(=O)Nc1ccc(NC(=S)NC(=O)CC(C)C)cc1OC	3	-5	-11	0.0	9%
Brc1ccccc1-c1nnc2sc(-c3ccc4c(c3)OCCO4)nn12	9	-20	-15	-0.2	4%
Cc1ccc(N2CC(C(=O)NC3CC3)CC2=O)cc1Cl (stereo not given)	-6	.	.	0.5	.
CN(C)S(=O)(=O)c1cccc(NC(=O)COC(=O)c2cccn2C)c1	-4	8	.	-2.6	7%
Cc1ccc(-n2c(Cc3noc4ccccc34)n[nH]c2=S)cc1	-8	1	.	1.9	-4%
FC(F)(F)c1ccc(/C=N/n2c(COc3ccccc3)n[nH]c2=S)cc1	0	.	.	2.4	.
O=[N+]([O-])c1nn(-c2ccc3c(c2)OCCO3)n(O)c1=NCc1ccc(F)cc1	?	-5	-10	1.8	4%
Cc1cccc(N2CCN(C(=O)CN(C)S(=O)(=O)c3ccc4c(c3)CCC(=O)N4)CC2)c1C	-5	-8	-40	2.4	7%
Cc1cc(OCCOCCN(C)C)ccc1Cl	2	-5	-18	-1.3	6%
COc1ccc(OC)c(C(=O)NC2CCSc3ccccc32)c1 (stereo not given)	-2	.	.	-1.5	.
Cc1nn(-c2ccc(Cl)cc2)c(=O)c2c(C)noc12	-2	.	.	2.0	-6%
Cc1ccc(N=C(N(C)C)P(=O)(N(C)C)N(C)C)c(C)c1	-6	16	.	-0.4	1%
Cn1cnnc1SC(C(=O)Nc1ccc(F)cc1)c1ccccc1 (stereo not given)	0	2	2	-2.2	-1%
CCC1(C)Cc2c(sc3c2c(=O)n(C)c2nnc(SCc4ccccc4)n32)CO1 (stereo not given)	0	-17	-12	-1.6	-10%
Cc1ccc(Sc2sc(=O)n(C)c2S(=O)(=O)c2ccc(C)cc2)cc1	5	-6	.	1.5	5%
COc1ccc(NC(=O)N2CCCCC2c2cccnc2)cc1 (stereo not given)	4	-3	-27	-0.9	3%
Cn1c(=O)cc(SCC(=O)Nc2cccnc2)c2ccccc21	-5	-3	-16	7.5	-12%
Cc1ccc(C2=NS(=O)(=O)N(C)C(C(=O)NC3CCCCC3)=C2)cc1	-7	.	.	-8.7	.
CSCCC(NS(=O)(=O)c1ccccc1F)C(=O)Nc1cccc(C)n1 (stereo not given)	-4	.	.	1.1	.
COc1ccc(/C(=N/OC(C)=O)c2nccc3cc(OC)c(OC)cc23)cc1OC	-5	.	.	31*	-6%
Cc1ccc(CS(=O)(=O)CCC(=O)NCc2cccs2)cc1	2	5	-30	-0.1	-9%
O=C(Nc1cccc(Cl)c1N1CCOCC1)c1ccc([N+](=O)[O-])o1	.	.	.	-1.9	1%
O=C1CCCN1CC1CCN(Cc2nc(CC3CC3)no2)CC1	-7	2	.	0.3	2%
O=C(CSc1nc2c(sc3ccccc32)c(=O)n1CCO)NCC1CCCO1 (stereo not given)	-2	4	10	2.3	-1%
COc1cc(C(=O)OCCNC(=O)c2ccncc2)cc(OC)c1OC	-2	2	-30	-1.3	-1%
CCOC(=O)C1=C(COC(=O)COc2ccc(C(C)=O)cc2)NC(=O)NC1C (stereo not given)	-3	.	.	2.1	.
CN1C(=S)SC(N(O)C(=O)Nc2cccc3ccccc23)C1(C)C (stereo not given)	-2	-2	29	3.2	8%
CCOc1c(Cl)cc(CNCc2ccccn2)cc1OC	52	0	.	-1.0	0%
COc1c(Cl)cccc1-c1cn2ccccc2n1	15	.	.	-1.7	-1%

The results go on:
SMILES	Mtb betalactam	Arbovirus anti	YopH PTP inh	RecA splice inh	Mtb H37Rv	others
COc1ccc(/C(C)=N\NC(=O)CNC(=O)C(c2ccccc2)c2ccccc2)cc1OC	4	.	.	-1.2	.
N#Cc1ccccc1NC(=O)c1ccc(-c2ccccc2Cl)o1	-7	-1	-20	-0.4	4%
O=C(Nc1nnc(C2CC2)o1)c1ccc(S(=O)(=O)N2CCCCC2)cc1	92	.	.	0.7	.
COc1ccc(-c2csc(NC(=O)C3CC(=O)N(Cc4ccco4)C3)n2)cc1 (stereo not given)	-4	18	.	8.1	-5%
COc1ccc(C(NC(=O)c2ccco2)c2ccc(OC)c(OC)c2)cc1OC	-4	7	-32	-1.8	-4%
CCOc1cc(NC(=O)C(C)C)c(OCC)cc1NC(=O)Nc1ccccc1	-3	.	.	-4.4	.
CC1(C)OC(C)(C)/C(=C/Nc2ccc(O)cc2)C1=O	7	-16	13	-3.4	3%
CCCn1c(SCC(=O)NC2CCCCC2)nnc1-c1ccncc1	0	14	-20	.	1%
Cc1ccc(C(=O)Nc2c(-c3cccs3)c(=O)c3ccccc3n2C)cc1	-1	-15	-4	.	-8%
O=C(CSc1nnc2ccccn12)NCCc1ccc(Cl)cc1	-9	-4	.	3.3	6%
COc1ccccc1N1CCN(C(=O)c2cc3cc(F)ccc3[nH]2)CC1	-1	.	.	-2.1	.
COc1ccc(-c2cc3c(=O)n(CC(=O)N4CCN(C)CC4)ncn3n2)cc1	7	.	.	-6.1	.
COC(=O)c1ccc(C2C3=C(Nc4nnnn42)c2ccccc2OC3)cc1 (stereo not given)	-1	3	-30	-40	.
C/C(N)=C(/C#N)C(=O)COC(=O)CNS(=O)(=O)c1ccc(F)c(F)c1F	-11	7	.	-2.0	9%
Cc1oc(-c2ccc(Cl)cc2)nc1CS(=O)CC(=O)NC1CCCCC1 (stereo not given)	-1	.	.	2.1	.
OCC[C@@H]1C[C@@H](O)[C@H](O)[C@@]2(Cc3ccccc3CCO2)O1	-10	.	.	-1.1	.
CC(C)(C)c1ccc(OCC(=O)N/N=C/c2cc(Br)ccc2OC(=O)c2ccco2)cc1	.	-36	-16	-2.7	.
CCOC(=O)Cc1ncccc1C(=O)Nc1ccc(Oc2ccccc2)cc1	-6	-5	.	-2.6	2%
O=C(CSc1nnnn1Cc1ccccc1)c1ccccc1	-1	1	-28	5.0	11%
Cc1nn(C)c(Oc2ccc(Cl)cc2)c1C(=O)O	5	-7	-8	0.1	2%
COc1ccc(NC(=O)CSc2ccc(F)cc2)cc1S(=O)(=O)N1CCCCC1	0	5	19	15	7%
COc1ccc(NC(=O)c2sc3nc(N4CCOCC4)c4c(c3c2N)CC(C)(C)OC4)c(OC)c1	3	.	.	-6.2	.
CCOc1cc(/C=N/NC(=O)C(C)Sc2ccccn2)ccc1O (stereo not given)	-2	10	-16	-2.8	2%
O=C(COC(=O)/C=C/c1ccc(S(=O)(=O)N2CCOCC2)cc1)NCc1ccccc1	1	3	.	-1.1	0%
Clc1ccc2c(c1)CCc1cccnc1C2=C1CCNCC1	100	-21&-32	-35	0.7	7%&-8%
COc1ccc(OC)c(C(=O)COC(=O)C(CCSC)NC(=O)COc2ccccc2)c1 (stereo not given)	-2	.	.	2.3	.
O=Cc1c(Nc2cccc(C(F)(F)F)c2)nc2ccccn2c1=O	97	.	.	-1.2	.
O=C(Nc1ccncc1)C1CC(=O)N(c2ccc(F)cc2)C1 (stereo not given)	-7	.	.	0.4	.
CCCN(CC(=O)Nc1ccccc1OC)C(=O)C1CCCC1	2	.	.	2.1	.
O=C(CCCSc1nnc(Nc2ccccc2F)s1)N1CCOCC1	-12	4	.	3.1	6%
CC(C)NC(=O)NC(=O)CSc1nncn1C	-10	4	-14	-0.9	4%

By substructure: the entries above containing a nitro group on carbon
SMILES	Mtb betalactam	Arbovirus anti	YopH PTP inh	RecA splice inh	Mtb H37Rv	others
Cn1cc([N+](=O)[O-])cc1-c1nc2ccccc2n1C	1	.	.	-0.1	.
Cc1cc(NC(=O)c2ccc(Br)c([N+](=O)[O-])c2)no1	2	7	.	-3.4	6%
O=[N+]([O-])c1nn(-c2ccc3c(c2)OCCO3)n(O)c1=NCc1ccc(F)cc1	?	-5	-10	1.8	4%
O=C(Nc1cccc(Cl)c1N1CCOCC1)c1ccc([N+](=O)[O-])o1	.	.	.	-1.9	1%
